TRPML1 agonist = human mucolipin-1 channel agonism | Q9GZU1 | TRPML1-expressing cells, Ca2+ dye fluorescence, FDSS; host cell line not named in the record; reference of the full effect not given here | activation, % (no concentration beside the values) | 410,000 tested, 0.12% active | AID 624414; in the data active = activation above about 50%; inconclusive = about 30% to 50%; inactive = below about 30%; further: 0% is about no effect; the text of the record puts the active cut at 80%
Target sequence (Q9GZU1 whole entry, looked up): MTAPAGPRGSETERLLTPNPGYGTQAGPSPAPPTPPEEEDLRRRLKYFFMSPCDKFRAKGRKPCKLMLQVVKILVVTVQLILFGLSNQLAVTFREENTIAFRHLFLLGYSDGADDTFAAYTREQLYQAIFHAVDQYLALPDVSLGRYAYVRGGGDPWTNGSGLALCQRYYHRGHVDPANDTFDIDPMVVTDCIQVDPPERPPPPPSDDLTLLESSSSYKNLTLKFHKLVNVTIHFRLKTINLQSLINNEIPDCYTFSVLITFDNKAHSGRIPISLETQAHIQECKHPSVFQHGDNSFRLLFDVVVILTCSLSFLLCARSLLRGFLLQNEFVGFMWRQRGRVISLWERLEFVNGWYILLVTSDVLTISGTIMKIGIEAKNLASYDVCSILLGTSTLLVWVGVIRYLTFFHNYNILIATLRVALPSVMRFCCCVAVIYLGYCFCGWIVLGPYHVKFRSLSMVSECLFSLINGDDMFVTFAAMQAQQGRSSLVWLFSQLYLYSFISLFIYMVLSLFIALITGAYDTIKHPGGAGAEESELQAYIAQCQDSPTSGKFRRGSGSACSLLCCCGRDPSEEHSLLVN
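In this qHTS format, compounds were pin-transferred onto Ca8-dye-loaded TRPML1-DL cells induced with Tet overnight, and intracellular Ca2+ fluorescence was recorded kinetically for 110 s after a 10 s baseline. A subsequent 4uM final 54-4 (EC80) addition followed by a second 110 s read served as the antagonist phase.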
PINK1 expr mod = changes PINK1 expression | 410,000 tested, 0.2% active | AID 624263 | PINK1 immunofluorescence, high-content cytometry, 24 h | Potency, µM (highest dose often 76.6 µM), without a hit: top-dose activation (PINK1 increase), hits mostly activators; active = well fitted activation curve with a large enough effect; inconclusive = small, poorly fitted or top-dose-only effect; inactive = flat fitted curve, though single readings scatter; cell line not stated here;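 further: potency means the concentration at half of the fitted maximal effect; % of control where 0% means no effect; nearly all actives have a fitted effect of over 65% in size; a mitochondrial uncoupler was the plate control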
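Decision-based qHTS: stable cells, 24 h exposure to five compound concentrations, CCCP as control. Fixed cells stained for PINK1 plus nuclear, mitochondrial and cell markers, cytometer read.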
D2 PAM = potentiates the human D2 dopamine receptor allosterically | P14416 | DiscoveRx D2 beta-arrestin cells, luminescence, 90 min; 100% = 57 uM dopamine signal | potentiation, % (test concentration not listed) | 360,000 tested, 0.23% active; active = potentiation of 50% or more; inconclusive = 30% to 50%; inactive = 30% or less;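 further: compound concentration not given in the record; tested on top of an EC20 dose of dopamine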
Target sequence (P14416 whole entry, looked up): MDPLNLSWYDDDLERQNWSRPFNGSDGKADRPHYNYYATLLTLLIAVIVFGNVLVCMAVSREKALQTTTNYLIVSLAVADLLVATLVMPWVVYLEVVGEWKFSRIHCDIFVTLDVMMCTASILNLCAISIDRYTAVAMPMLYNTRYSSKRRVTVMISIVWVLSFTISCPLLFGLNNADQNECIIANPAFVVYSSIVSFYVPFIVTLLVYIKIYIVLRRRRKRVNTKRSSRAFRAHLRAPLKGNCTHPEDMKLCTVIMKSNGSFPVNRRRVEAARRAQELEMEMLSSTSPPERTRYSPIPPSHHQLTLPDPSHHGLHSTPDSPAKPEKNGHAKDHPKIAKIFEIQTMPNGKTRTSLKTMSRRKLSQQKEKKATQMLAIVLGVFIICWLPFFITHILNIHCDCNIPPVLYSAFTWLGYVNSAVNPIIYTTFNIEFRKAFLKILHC
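PathHunter D2 cells, attached overnight at 37 deg C, received compound in DMSO plus dopamine at EC20 (50 nM final) for 90 min at 37 deg C. Beta-arrestin recruitment was read as luminescence after 1 h with detection reagent at ambient temperature.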
Six1-Eya2 inh = inhibitors of human Six1/Eya2 interaction. Q15475+O00167. AlphaScreen GST-Six1/His-Eya2 binding, biochemical; stronger effect = lower value; control for the full effect not named in the record. activity change, % (no concentration beside the values). 360,000 tested, 0.56% active; in the data active = activity change below about -65%; inconclusive = about -30% to -65%; inactive = above about -30%; further: on the % scale 0 is the no-effect control and ±100 the full control effect; compound concentration not given in the record
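Compounds are tested against tagged Six1 and Eya2 proteins bridged by glutathione donor and nickel acceptor beads; after a one-hour incubation at 37 °C without light, AlphaScreen emission is recorded.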
CtBP-E1A blk = blocks the CtBP interaction with E1A; AID 651724; 340,000 tested, 0.49% active; AlphaScreen GST-E1A/His-CtBP binding, 1536-well; stronger effect = lower value; control for the full effect not named in the record; activity change, % (test concentration not listed); in the data active means activity change below about -65%; inconclusive means about -30% to -65%; inactive means above about -30%; further: on the % scale 0 is the no-effect control and ±100 the full control effect; compound concentration not given in the record
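Steps: dispense buffer (Tris pH 8.0, NaCl 300 mM, TCEP 1 mM, BSA, Tween 20); add 5X protein mix (GST-E1A, His-CtBP, 125 nM each); pin 23 nL compound; 2 h at 37 °C, dark; add 5X beads (50 ug/mL); 1 h; read.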
D2 agonist = activates the human D2 dopamine receptor; DiscoveRx PathHunter D2 beta-arrestin, luminescence, 90 min; 100% = 57 uM dopamine signal; activation, % (no concentration beside the values); 360,000 tested, 0.084% active; in the data active = activation above about 40%; inconclusive = about 15% to 40%; inactive = below about 15%; further: compound concentration not given in the record; the text of the record calls up to 30% inactive
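Agonist mode: compounds alone added to overnight-plated D2 PathHunter cells for 90 min at 37 C, with 57 uM final dopamine (EC100) defining full response. Beta-arrestin recruitment detected by chemiluminescent reagent, read after 1 h at ambient temperature.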
Active calls of the source: *; ? = inconclusive; . = no result given; & = joins results of further samples; [ ] = remark or other dose.

Every second line gives: D2 agonist | Six1-Eya2 inh | D2 PAM | PINK1 expr mod | TRPML1 agonist | CtBP-E1A blk
Cc1c(CC(=O)NC(C)C)c(=O)oc2cc3c(cc12)CCC(C)(C)O3
    6.0 | 0 | -9 | 1.6% | 0.5 | 8
N#CC(c1ccccn1)(c1ncc(C(F)(F)F)cc1Cl)N1CCOCC1 (configuration not stated)
    -0.4 | -2 | -5 | 12%[38.3 µM] | 0.1 | -4
O=C(N/N=C/c1ccc2ncccc2c1)c1cc(-c2cccs2)nc2ccccc12
    -5.1 | 1 | -15 | 4.7% | 0.4 | .
Cn1c(=O)c2c(-c3ccccc3)n(-c3ccccc3N)cc2n(C)c1=O
    -3.9 | 5 | -5 | -1.6% | 2.0 | 0
CN(C)S(=O)(=O)c1ccc(NC(=O)/C=C/c2ccccc2Cl)cc1
    ? | -12 | -13 | 0.9% | 0.3 | 6
COc1ccc(C(=O)c2c(-c3cccc(C)c3)oc3ccc(N4CCOCC4)cc23)cn1
    4.0 | 1 | 12 | 1.7% | 0.2 | .
O=C(CCS(=O)(=O)c1ccccc1)Nc1ccc(Cl)cn1
    -5.1 | -3 | -7 | 0.1% | 0.0 | 4
CC(C)c1ccc(N2C(=O)CC(NNC(=O)c3ccccc3Cl)C2=O)cc1 (configuration not stated)
    -1.8 | 2 | -2 | 1.0% | -0.4 | 1
Cc1ccc(Cc2c(-c3ccc(Br)cc3)nc3ccc(Cl)cn23)cc1
    -3.0 | -12 | -2 | 6.3% | 0.0 | -4
CCOc1ccc(Cl)cc1C1=CC(=O)C[C@H](c2ccc(OC)cc2)C1
    -1.0 | 9 | -4 | 3.8% | 2.6 | .
CCn1c(COc2ccccc2)nnc1SCC(=O)NC1CC1
    -3.3 | 6 | -9 | 0.2% | 0.4 | -13
CS(=O)(=O)c1ccc2nc(NC(=O)C3CC(=O)N(c4ccc(F)cc4)C3)sc2c1 (configuration not stated)
    -0.5 | -19 | -4 | 0.0% | -0.1 | -1
CCOC(=O)c1ccc(S(=O)(=O)N2CCN(C/C=C/c3ccccc3)CC2)cc1
    -3.3 | -9 | -1 | 3.4% | 1.1 | 3
O=C(NCc1cccnc1)c1cccc(S(=O)(=O)NCc2ccccc2)c1
    1.1 | -4 | 14 | 1.9% | -1.1 | 1
Cc1ccc(S(=O)(=O)N2CCCCC2)cc1NC(=O)COc1ccccc1
    5.9 | -1 | -6 | 3.8% | -1.1 | 3
Cc1ccc(C(=O)Nc2nc3ccc(S(C)(=O)=O)cc3s2)cc1C
    -0.2 | 2 | -6 | 12% | -0.4 | 0
CC(C)CNC(=O)c1c2c(nc3ccccc13)-c1ccccc1CC2
    -7.0 | -7 | 5 | 1.6% | -0.3 | 3
CCCc1cc(C(=O)N2CCCC(C(=O)c3cccc4ccccc34)C2)n(C)n1 (configuration not stated)
    5.9 | -4 | 5 | 0.0% | 2.9 | .
O=C(NCc1ccco1)c1cccc2c1C(=O)c1ccc(/C=C/c3ccccc3)cc1S2(=O)=O
    3.5 | -13 | 12 | 4.0% | -0.9 | -14
COC(=O)COc1ccc(/C=C2\SC(=O)N(CC(=O)Nc3ccccc3F)C2=O)cc1
    4.6 | -1 | -3 | 3.1% | 1.0 | -2
COc1ccc(-n2c(=S)[nH]c3cc(C(=O)NCc4ccco4)ccc3c2=O)c(OC)c1
    -4.2 | -5 | -28 | -0.5% | 1.2 | -3
CN(CC(=O)Nc1ccc(N2CCOCC2)cc1)CC(=O)Nc1cccc(C#N)c1
    -1.3 | 7 | -15 | -1.6% | 0.0 | 2
C[C@@H](C(=O)Nc1ccc2ccccc2c1)[C@@H]1C[C@@]1(C)[C@@H](N)c1ccccc1
    -0.8 | 1 | -71 | 3.5% | -0.3 | 5
COc1ccc(-c2nc(CSCC(=O)NCCCN3CCCC3=O)c(C)o2)cc1
    -0.2 | 2 | -8 | -1.0% | -0.4 | 9
Cc1cnn(C(=S)NCCc2ccccc2)c1
    -4.8 | 22 | -5 | -1.4% | -0.2 | 29
O=C(CSc1nnc(-c2ccc(F)cc2)n1CC1CCCO1)NCc1ccco1 (configuration not stated)
    -5.1 | -1 | -8 | -3.1% | 0.4 | -8
CC(=O)N1c2ccc(S(=O)(=O)N3CCC(C(=O)Nc4ccc(C)cn4)CC3)cc2CC1C (configuration not stated)
    -0.5 | -3 | -12 | 0.9% | -0.8 | -3
c1ccc(-c2nnc(SCc3nc4ccccc4[nH]3)n2Cc2ccco2)cc1
    -0.9 | -7 | -16 | -3.4%[38.3 µM] | 0.8 | -9
O=C(CCCNC(=O)/C(=C\c1ccc(F)cc1)NC(=O)c1ccccc1)OCc1ccccc1
    -3.7 | 10 | -13 | -0.4% | 2.0 | -5
CC(=O)Nc1ccc(NC(=O)C(C)OC(=O)c2ccc3ccccc3n2)cc1 (configuration not stated)
    -1.4 | -2 | -1 | 0.0% | 0.0 | 2

Profiles as entered above. Screens in order: D2 agonist | Six1-Eya2 inh | D2 PAM | PINK1 expr mod | TRPML1 agonist | CtBP-E1A blk
COC(=O)COc1ccc(/C=C2\SC(=O)N(CC(=O)Nc3ccccc3F)C2=O)cc1 across the screens: 4.6 | -1 | -3 | 3.1% | 1.0 | -2
CC(=O)N1c2ccc(S(=O)(=O)N3CCC(C(=O)Nc4ccc(C)cn4)CC3)cc2CC1C (configuration not stated) across the screens: -0.5 | -3 | -12 | 0.9% | -0.8 | -3
Cc1cnn(C(=S)NCCc2ccccc2)c1 across the screens: -4.8 | 22 | -5 | -1.4% | -0.2 | 29

Additional entries:
Every second line gives: D2 agonist | Six1-Eya2 inh | D2 PAM | PINK1 expr mod | TRPML1 agonist | CtBP-E1A blk
COc1ccc(NC(=O)C2CCN(C(=O)NC3CCCCC3)CC2)c(OC)c1
    -0.3 | -3 | 2 | -0.6% | -0.8 | -1
Cc1ccc2cc(NC(=O)C3(C)CCN3CC(C)C)ccc2n1 (configuration not stated)
    -0.9 | 1 | -4 | 0.0% | -0.3 | 4
COc1ccc(C(C(=O)NC2CCCC2)N(C(=O)c2ccco2)c2ccc(OC)c(OC)c2)cc1 (configuration not stated)
    -1.3 | 3 | -12 | -1.4% | 0.3 | 8
Cc1cc(S(=O)(=O)N2CCCCCC2)c(Cl)cc1Cl
    1.3 | 42 | 10 | -0.5% | 4.0 | 41
O=C(COC(=O)Cc1ccc(Cl)cc1)Nc1ccccc1F
    -2.5 | 0 | -12 | -0.6% | 2.8 | 0
Cc1cccc(NS(=O)(=O)c2ccc(NC(=O)N3CCCCC3)cc2)c1
    0.8 | -1 | -2 | -1.0% | 0.0 | 9
COc1ccc(NC(=O)C(=O)NCC(c2ccco2)N2CCc3ccccc3C2)cc1OC (configuration not stated)
    -0.9 | -12 | 29 | 0.6% | -0.5 | -1
COc1ccc(O)c(C(=O)c2coc(=N)c(C(=O)Nc3ccc(SC(F)F)cc3)c2)c1
    10 | -3 | 29 | ? | 7.1 | 3
O=C(CN1C(=O)CCSc2ccc(S(=O)(=O)N3CCCC3)cc21)Nc1ccccc1Cl
    -7.0 | 2 | -9 | 0.9%&0.3% | 0.0&-1.4 | 1
Cc1cccnc1NC(=O)c1nn(C)c2c1CS(=O)(=O)c1ccccc1-2
    -6.5 | 4 | -9 | 2.4% | 0.1 | 2
O=C(Nc1c(F)c(F)c(F)c(F)c1F)NC1CCCCC1
    -2.6 | 5 | -18 | -1.2%[38.3 µM] | -0.2 | 3
O=C(NCc1cccnc1)Nc1cccc(NC(=O)NCc2cccnc2)c1F
    1.1 | 5 | -1 | 1.1% | 1.4 | -6
CC(C)CNC(=O)c1cccc(NC(=O)Cc2ccc(Cl)cc2)c1
    5.2 | 8 | -15 | 9.2% | 1.1 | -7
O=C(CCNC(=O)Cn1ccc2ccccc2c1=O)NCCc1ccccc1Cl
    -3.4 | 3 | 10 | 7.7% | 0.2 | 11
COc1cc(NC(=O)c2cccs2)c(OC)cc1NC(=O)c1ccco1
    1.7 | -24 | -8 | ? | 0.9 | 0
N#CCc1ccc(OC(=O)Nc2ccccc2)cc1
    0.1 | 1 | 8 | 4.2% | -0.7 | 6
Cc1ccnc2nc(NC(=O)c3ccco3)nn12
    -0.6 | 0 | -9 | 2.0% | 0.8 | .
O=C(CN1C(=O)NC2(CCCCC2)C1=O)NCCC1=CCCCC1
    -1.7 | 4 | 4 | . | 0.7 | 6
Cc1ccc(S(=O)(=O)NC(=O)Nc2nnc(C)s2)cc1
    -4.8 | -3 | 10 | 1.0% | -0.3 | 1
O=C(NNC(=O)C1CCCO1)c1ccc([N+](=O)[O-])cc1 (configuration not stated)
    -3.7 | 4 | 0 | 2.2% | 0.7 | 0
CCOC(=O)c1ccccc1NC(=O)CC(C)CC(=O)O (configuration not stated)
    -4.1 | 1 | -8 | -1.1% | -0.7 | 6
CN1CCc2ccccc2C1Cc1ccccc1NC(=O)c1sc2ccccc2c1Cl (configuration not stated)
    -1.3 | 4 | -24 | -0.2% | 0.4 | .
COc1ccc(C(=O)NCC(=O)N/N=C/c2cccnc2)cc1OC
    12 | 14 | -14 | 1.0% | -0.2 | -11
COc1ccccc1C(=O)C1CCCN(C(=O)c2cc(C(C)C)no2)C1 (configuration not stated)
    -3.2 | 5 | -7 | 0.1% | 0.3 | -5
O=C(NC(=S)Nc1cccc(Cl)c1N1CCCCC1)c1ccco1
    -1.8 | -8 | -19 | 19%[38.3 µM] | 0.7 | -11
Clc1ccc(/C=N/NC2=Nc3cccc4cccc2c34)cc1
    -0.3 | -12 | -30 | 2.3% | 1.1 | -5
COc1cc(OC)c(N(C)S(=O)(=O)c2cccc(C(=O)OCC(=O)c3c[nH]c4ccccc34)c2)cc1Cl
    7.1 | -8 | 14 | -1.7% | 1.2 | -12
O=C(Cc1ccc(F)cc1)Nc1ccc2[nH]ncc2c1
    1.8 | 0 | 7 | -0.5% | -1.2 | 10
Cc1cc(C)cc(OCC(=O)NNC(=O)CN2C(=O)c3ccccc3C2=O)c1
    -0.4 | 5 | -16 | -1.7% | 0.8 | 10
CCOc1ccc(/C=C/C(=O)Nc2ccccc2C(F)(F)F)cc1
    -1.4 | 3 | -17 | 2.5% | 6.1 | 2
CC1=C(C(=O)Nc2ccc(C)cn2)C(c2cnn(C)c2)C2=C(CCCC2=O)N1 (configuration not stated)
    -0.9 | 13 | -10 | -3.5% | -0.4 | 3
O=C(COC(=O)c1cc(=O)[nH]c(=O)[nH]1)Nc1cccc(S(=O)(=O)N2CCCCC2)c1
    -2.8 | 2 | -3 | 2.2% | 0.2 | 9
CC(NCc1ccc(F)cc1)C(=O)NC1CCCCC1 (configuration not stated)
    -1.2 | 4 | -7 | 3.0% | 0.0 | .
O=C(CCNC(=O)c1ccco1)Nc1cccc(Br)c1
    0.4 | 4 | -18 | 0.1% | -1.0 | 5
CN1CCc2nc3ccccc3c(C(=O)OCC(=O)N(CCC#N)c3ccccc3)c2C1
    -5.0 | -3 | 4 | -0.2% | -0.5 | -1
